PINK1 expr mod = modulators of PINK1 expression; Potency, µM (highest dose often 76.6 µM), without a hit: at the top dose activation (PINK1 increase), hits mostly activators; PINK1 immunofluorescence, high-content cytometry, 24 h; 410,000 compounds, 0.2% hits; active = well fitted activation curve with a large enough effect; inconclusive = small, poorly fitted or top-dose-only effect; inactive = flat fitted curve, though single readings scatter; cell line not stated here;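 note: potency is the fitted concentration of half-maximal effect; % of control where 0% means no effect; nearly all actives have a fitted effect of over 65% in size; a mitochondrial uncoupler was the plate control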
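Compound titrations (5 concentrations, 24 h) on a stable cell line; DMSO and CCCP controls. Endpoint: fixed-cell PINK1 immunofluorescence with mitochondrial, cell and nuclear markers, scanned by microplate cytometer.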
D2 potentiator = human D2 receptor positive allosteric modulation. DiscoveRx D2 beta-arrestin cells, luminescence, 90 min; 100% = 57 uM dopamine signal. potentiation, % (no concentration beside the values). 360,000 compounds, 0.23% hits; active = potentiation of 50% or more; inconclusive = 30% to 50%; inactive = 30% or less;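 note: compound concentration not given in the record; tested on top of an EC20 dose of dopamine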
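PathHunter beta-arrestin assay in DiscoveRx D2 cells. Compounds were added with an EC20 of dopamine (50 nM final) for 90 min at 37 deg C. Luminescence was read 1 h after detection reagent, with 57 uM dopamine as the EC100 control.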
Six1-Eya2 inh = inhibitors of human Six1/Eya2 interaction; Q15475+O00167; AlphaScreen GST-Six1/His-Eya2 binding, biochemical; active compounds read low; control for the full effect not named in the record; activity change, % (test concentration not listed); 360,000 compounds, 0.56% hits; AID 651725; in the data active = activity change below about -65%; inconclusive = about -30% to -65%; inactive = above about -30%; note: % is set by controls: 0 for no effect and ±100 for the full control effect
Target sequence (O00167 whole entry, looked up): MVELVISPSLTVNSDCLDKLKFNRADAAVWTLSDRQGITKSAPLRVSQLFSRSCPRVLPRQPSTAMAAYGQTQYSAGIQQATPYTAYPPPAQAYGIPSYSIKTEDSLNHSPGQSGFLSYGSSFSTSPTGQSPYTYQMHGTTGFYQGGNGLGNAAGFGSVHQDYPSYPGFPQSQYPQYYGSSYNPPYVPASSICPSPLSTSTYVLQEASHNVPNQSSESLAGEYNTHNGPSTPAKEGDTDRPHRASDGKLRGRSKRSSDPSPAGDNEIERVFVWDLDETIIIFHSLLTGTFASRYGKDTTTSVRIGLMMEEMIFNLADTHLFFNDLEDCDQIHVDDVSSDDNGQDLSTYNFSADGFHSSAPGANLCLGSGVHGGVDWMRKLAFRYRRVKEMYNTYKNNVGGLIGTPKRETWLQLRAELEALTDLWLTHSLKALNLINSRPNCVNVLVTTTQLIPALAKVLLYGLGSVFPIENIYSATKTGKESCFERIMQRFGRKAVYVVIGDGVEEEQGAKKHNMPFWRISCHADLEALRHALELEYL
Target sequence (Q15475 whole entry, looked up): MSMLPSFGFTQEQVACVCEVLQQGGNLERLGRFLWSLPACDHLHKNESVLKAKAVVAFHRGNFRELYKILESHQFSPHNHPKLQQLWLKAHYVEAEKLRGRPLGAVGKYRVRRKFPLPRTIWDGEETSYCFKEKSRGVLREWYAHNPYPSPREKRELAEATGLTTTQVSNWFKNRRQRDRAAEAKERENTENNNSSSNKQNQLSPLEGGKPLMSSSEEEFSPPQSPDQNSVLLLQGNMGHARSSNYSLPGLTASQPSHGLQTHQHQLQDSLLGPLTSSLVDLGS
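Compounds are tested against tagged Six1 and Eya2 proteins bridged by glutathione donor and nickel acceptor beads; after a one-hour incubation at 37 °C without light, AlphaScreen emission is recorded.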
TRPML1 agonist = activates the human TRPML1 channel. activation, % (concentration not given with the values). TRPML1-expressing cells, Ca2+ dye fluorescence, FDSS; host cell line not named in the record; reference of the full effect not given here. Q9GZU1. 410,000 compounds, 0.12% hits; in the data active = activation above about 50%; inconclusive = about 30% to 50%; inactive = below about 30%; note: 0% is about no effect; the text of the record puts the active cut at 80%
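Agonist activity was taken from a 110 s kinetic Ca2+ dye read on the FDSS after pinning compounds onto TRPML1-DL cells. The cells were seeded at 1,500/well with Tet inducer, incubated about 16 h, then dye-loaded at room temperature.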
TRPML1 blocker = inhibitors of human TRPML1 channel | 390,000 compounds, 0.02% hits | activity change, negative = inhibition, % (no concentration beside the values) | TRPML1-inducible cells, Ca2+ dye fluorescence, FDSS; active compounds read low; inhibition of EC80 agonist-evoked calcium signal | Q9GZU1; in the data active means activity change below about -50%; inconclusive means about -30% to -50%; inactive means above about -30%;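 note: stimulus is agonist 54-4 at its EC80 concentration; % is set by controls: 0 for no effect and ±100 for the full control effect; compound concentration not given in the record; the text of the record puts the active cut at -80%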
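Tet-induced TRPML1-DL cells loaded with Ca8 no-wash calcium dye were read kinetically on FDSS. Compound addition was followed by EC80 agonist 54-4 (4 uM final); inhibition was read over 110 s.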
D2 agonist = human D2 receptor agonism in beta-arrestin assay. activation, % (concentration not given with the values). AID 624465. 360,000 compounds, 0.084% hits. DiscoveRx PathHunter D2 beta-arrestin, luminescence, 90 min; 100% = 57 uM dopamine signal. P14416; in the data active = activation above about 40%; inconclusive = about 15% to 40%; inactive = below about 15%; note: the text of the record calls up to 30% inactive
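DiscoveRx PathHunter D2 beta-arrestin cells (2,100/well) attached overnight, then compound-stimulated 90 min at 37 C in HBSS/10 mM HEPES/0.1% Tween-20 buffer; beta-galactosidase complementation read by luminescence after 1 h at ambient temperature. Dopamine 57 uM final (EC100) as control.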
An asterisk follows results filed as active; u = inconclusive; x = no result given; & = joins results of further samples; [ ] = another dose, or the depositor's remark.

SMILES	PINK1 expr mod	D2 potentiator	Six1-Eya2 inh	TRPML1 agonist	TRPML1 blocker	D2 agonist
CCCOc1ccc(C(=O)Nn2c(C)nc3ccccc3c2=O)cc1	2.7%[38.3 µM]	1	-5	5.7	11	4.6
COc1ccc(CCNC(=O)c2csc3c2CCCC3)cc1	10%	-7	-9	0.5	-20	-1.9
C/C(=N/NS(=O)(=O)c1ccc(C)cc1)c1ccc(NC(=O)C(F)(F)F)cc1	-0.1%	-18	-20	0.7	-11	0.0
CN(CC(=O)Nc1ccc(S(=O)(=O)N2CCCC2)cc1)Cc1ccc(Cl)cc1	-0.5%	-30	-14	2.7	3	-2.2
CCC(NC(=O)/C(=C\c1ccc2c(c1)OCO2)NC(C)=O)C(=O)O (stereo unspecified)	-0.2%	7	0	0.1	8	-0.9
COc1ccc(C(=O)CC(=O)Nc2ccc([N+](=O)[O-])cc2)cc1	u	-6	u	2.0	74	-11
COc1ccc(-c2nc(NC(=O)C3=NN(c4cccc(C)c4)C(=O)CC3)sc2C)cc1	0.6%	-24	1	0.7	22	-6.4
O=C1CC(N2CCN(c3ncccn3)CC2)C(=O)N1CCc1ccccc1 (stereo unspecified)	-0.5%	-9	5	0.8	-5	2.7
CCOC(=O)c1c[nH]c2c([N+](=O)[O-])cc(OC)cc2c1=O	3.9%	-3	u	-0.3	-4	0.8
Nc1nc2c(ncn2[C@@H]2O[C@H](CNC(=O)[C@H](N)C3CCCCC3)[C@@H](O)[C@H]2O)c(=O)[nH]1	3.6%	-6	21	-0.1	0	-7.1

Whole records from above:
`Nc1nc2c(ncn2[C@@H]2O[C@H](CNC(=O)[C@H](N)C3CCCCC3)[C@@H](O)[C@H]2O)c(=O)[nH]1` as listed: PINK1 expr mod: 3.6%; D2 potentiator: -6; Six1-Eya2 inh: 21; TRPML1 agonist: -0.1; TRPML1 blocker: 0; D2 agonist: -7.1
`O=C1CC(N2CCN(c3ncccn3)CC2)C(=O)N1CCc1ccccc1` (stereo unspecified) as listed: PINK1 expr mod: -0.5%; D2 potentiator: -9; Six1-Eya2 inh: 5; TRPML1 agonist: 0.8; TRPML1 blocker: -5; D2 agonist: 2.7

Additional results follow.
SMILES	PINK1 expr mod	D2 potentiator	Six1-Eya2 inh	TRPML1 agonist	TRPML1 blocker	D2 agonist
CN(C)CC#CCC(O)(c1ccccc1)C1CCCCC1 (stereo unspecified)	0.6%	-6	-1	-0.2	1	-1.6
Oc1ccccc1-c1cnc2cccnn12	-0.9%	-2	-1	-0.6	x	-4.3
O=C(c1cc(=O)c2ccccc2o1)N(Cc1ccccc1)C1CCS(=O)(=O)C1 (stereo unspecified)	-2.0%	-2	4	-0.2	-15	1.4
CC(=O)C1=CCC(c2ccccc2)N(S(=O)(=O)c2ccccc2)C1 (stereo unspecified)	0.3%&0.8%	-11&-2	4&9	-0.1&2.4	28&28	-5.4&-1.2
O=C(NCc1ccc(F)cc1)c1cnccn1	0.4%	0	-3	-0.1	-7	-3.6
CC(=O)c1ccc(NC(=O)c2sc(-n3nc(C)c(Cc4ccccc4)c3C)nc2C)cc1	0.2%	x	x	-0.3	-4	x
Cc1oc2ncn(C)c(=O)c2c1C(=O)NCCCN(Cc1ccccc1)C(C)C	-0.2%	x	x	0.2	-18	x
CCC(=O)NCCc1nc2ccccc2n1CC(=O)c1ccccc1	-0.5%	-5	1	0.1	-8	-3.4
COc1ccc(C(=O)OCC(=O)N(C)C2CCS(=O)(=O)C2)cc1Br (stereo unspecified)	-0.3%	-4	10	-0.2	4	-0.6
Cc1ccc(C(=O)NC(NC(=O)c2ccc(C)cc2)c2cccc([N+](=O)[O-])c2)cc1	7.9%	-37	3	0.1	25	-2.1
CCCc1cc2c(=O)n(NC(=O)c3nn(C)cc3[N+](=O)[O-])c(C)nc2s1	3.1%	-14	0	0.1	1	-1.1
CC(C)c1ccc(CNn2cnnc2)cc1	1.3%	-2	0	0.0	15	-2.1
CCc1ccc(-n2nc(CO)c(C(=O)NCc3cccs3)n2)cc1	6.4%	x	x	3.7	16	x
COC(F)(C(=O)Nc1ccc2c(c1)C(=O)NC2=O)C(F)(F)F (stereo unspecified)	-0.5%	-1	5	-1.1	1	-1.8
O=S(=O)(Nc1cccc(-c2nc3cccnc3s2)c1)c1cccs1	-0.8%	2	u	0.7	-16	-0.6
c1cnc2c(-c3cccc4nccn34)cccc2c1	-0.9%	-13	-10	0.5	16	-4.4
CC(CCC(=O)O)C1CC[C@@]2(C)C3C(=O)CC4C(C)(C)C(O)CC[C@]4(C)C3C(=O)C[C@]12C (stereo partly specified)	-0.1%	2	3	0.1	5	14
CC(C)(C)OC(=O)N1CCC[C@H]1c1nnc(SCc2ccccc2)o1	-2.1%	-3	-1	1.7	-22	3.1
O=S(=O)(NCCc1ccc(F)cc1)c1cccc2cccnc12	1.8%	-5	-8	1.0	5	4.6
C=CCn1c(SCC(=O)N2CCN(c3ccc(F)cc3)CC2)nnc1-c1cccs1	0.0%	0	24	0.6	-25	-1.3
O=C(CN1C(=O)NC2(CCCC2)C1=O)OCCOc1ccc(Br)cc1	2.9%	-3	7	0.4	3	-6.7
CN1OC[C@@H]2CN(C(=O)NC3CCCCC3)[C@H](c3ccc(N4CCCCC4)cc3)C[C@@H]21	-1.1%	0	-1	-0.4	x	2.6
Cc1ccc(NC(=O)CSc2nn(-c3ccccc3)c(=S)s2)cc1S(=O)(=O)N(C)C	1.1%	-7	-6	2.9	3	3.6
COc1cccc(C(=O)NNC(=O)C(=O)Nc2cccc3ccccc23)c1	0.7%	1	-5	0.8	-11	-2.7
CCN(CC)c1ccc(C(=O)N2CCc3c([nH]c4ccccc34)C2c2ccc(F)cc2)cc1 (stereo unspecified)	-0.1%	x	x	-0.3	7	x
O=C(c1ccccc1)c1ccc(OCCn2cnc3ccccc3c2=O)cc1	4.3%	1	-3	-0.8	-6	-0.4
CCOC(=O)N1CCN(c2cc(=O)n(-c3ccc(Br)cc3)c(=O)[nH]2)CC1	-0.7%	-10	-3	0.1	10	-2.6
CCOC(=O)c1ccc(NC(=O)Cn2c(=O)oc3ccccc32)cc1	3.6%	-12	-8	0.5	-4	-4.4
O=C(CSc1nc2ccccc2c(=O)n1-c1ccccc1)N/N=C/C=C/c1ccccc1[N+](=O)[O-]	1.6%	-3	-11	0.8	18	-5.8
CCOC(=O)c1c(C)sc(-c2c(-c3ccc4c(c3)OCCO4)[nH]c3c2c(=O)[nH]c(=O)n3C)c1O	4.6%	x	x	2.6	42	x
Cc1ccc([N+](=O)[O-])cc1N=Nc1c(C)[nH]n(C(N)=S)c1=O	0.8%	-8	-1	2.8	-5	-1.7
Cc1ccccc1C(=O)Oc1cc(N)n(S(C)(=O)=O)n1	-0.9%	-3	-15	-0.6	-14	1.1
COc1ccc(CCNC(=S)NC(=O)c2cccc(Cl)c2)cc1OC	-2.1%	3	1	3.4	5	1.2
CCCn1nnc2sc3c(c2c1=O)CCC(C)C3 (stereo unspecified)	-0.9%	-24	24	-0.7	18	0.5
CCCc1nn2c(=O)cc(COC(=O)c3ccc(NC(=O)COc4ccc(F)cc4)cc3)nc2s1	-0.9%	x	x	2.9	1	x
CC(=O)Nc1ccc(C(=O)OCC(=O)N2CCC(Cc3ccccc3)CC2)cc1	4.5%	2	-1	1.0	10	-0.2
Clc1ccc(/C(Cc2nc3ccccc3[nH]2)=N\Nc2ccccc2)cc1	-0.5%	-16	-16	1.2	43	-2.3
COc1ccc(C(C)(NC(C)=O)c2nc(-c3cccc(C#N)c3)cs2)cc1 (stereo unspecified)	1.0%	0	4	-0.7	x	1.6
Cc1ccc(Nc2cc(C)nc(N3CCOCC3)n2)cc1	0.6%	-7	1	0.6	-10	-2.5
COc1ccc(CN2CCC(C(=O)Nc3ccc(Oc4cccnc4)cc3)CC2)cc1	0.1%	-36	-9	1.8	12	1.2
O=C(O)C1CN(C(=O)c2cccc(Br)c2)C1	0.3%	-4	0	2.1	44	1.4
O=C(Nc1cc(Cl)cc(Cl)c1)N1CCCC1	10%	-9	10	0.3	-8	0.4
Cc1csc(-c2ccc3cc(Cl)cc(Cl)c3n2)n1	1.0%	5	9	0.1	x	-1.7
O=S(=O)(/N=C(/NC(=S)Nc1ccccc1)c1ccccc1)c1ccc(Cl)cc1	-1.3%	-8	-2	1.4	1	-4.3
CCOc1ncccc1C(=O)OCC(=O)Nc1cccc(C(C)=O)c1	6.4%[38.3 µM]	-13	1	3.7	25	-3.1
Cn1c(=O)c(Nc2ccc(O)cc2)c2c3c(cccc31)C(=O)c1ccccc1-2	-1.9%	0	-77*	2.1	10	-5.0
CC(C)(C)C(=O)N1CCC[C@H]1C(O)(c1ccccc1)c1ccccc1	-2.4%	-4	19	0.0	6	1.7
CC(=O)c1c(C)[nH]c(C(=O)NNC(=O)COc2ccc(Cl)cc2C)c1C	1.3%	-4	-7	1.9	2	-2.4
CCC(C(=O)NCc1cccc(Br)c1)n1nc(C)c2c(C)n(-c3ccccc3)nc2c1=O (stereo unspecified)	-1.3%	x	x	1.0	3	x
CC1Cc2ccccc2N1C(=O)COC(=O)Cn1nnc(-c2ccccc2)n1 (stereo unspecified)	-1.0%	-8	1	1.7	-11	-0.6

(more compounds)
SMILES	PINK1 expr mod	D2 potentiator	Six1-Eya2 inh	TRPML1 agonist	TRPML1 blocker	D2 agonist
COc1ccc2c(c1OC)C(=O)OC2CC(=O)c1ccc(O)cc1 (stereo unspecified)	1.6%	3	3	-1.0	-7	-6.8
CCCCC(=O)N(C)c1c(CC)nc2c(OCc3ccc(Cl)cc3Cl)cccn12	24%	-2	-13	1.9	x	-0.3
CC(C)(C)c1cc(/C=N/NC(=O)Cc2nc3ccccc3[nH]2)cc(C(C)(C)C)c1O	1.5%	-13	-1	-0.4	7	0.3
COc1ccc(-n2c(/C=C(\C)O)nc(=O)c3c(C)cc(C)nc32)cc1	1.1%[38.3 µM]	-7	5	1.0	-10	1.4
O=C(c1ccc(Cn2c(=O)[nH]c3ccsc3c2=O)cc1)N1CCN(c2ccccc2)CC1	2.3%	-11	-16	-0.3	-12	-1.7
Cc1ccccc1NC(=O)c1cc(C(=O)c2cc(Cl)ccc2O)cn(-c2ccccc2C)c1=O	16µM*	25	-10	1.1	25	13
O=C(CCCc1cccs1)NCCc1c[nH]c2ccccc12	0.5%	-7	-8	1.7	-18	0.2
N#CC(C#N)=Cc1cnc(N2CCN(c3ccccc3)CC2)s1	32µM*	-5	-7	2.5	-3	13
O=S1(=O)N[C@@H](c2ccccc2)COc2cc(Br)ccc21	0.6%	-4	2	-0.7	11	-9.0
COc1cc(/C=N\NC(=O)Cn2nnc3ccccc32)cc(OC)c1OC	0.4%	-34	-20	0.9	-5	-3.0
O=C(CSc1ncnc2c1nnn2Cc1ccccc1)NC1CCCC1	1.9%	-5	12	0.4	-17	-2.3

By substructure: those above containing a CF3 group (2)
SMILES	PINK1 expr mod	D2 potentiator	Six1-Eya2 inh	TRPML1 agonist	TRPML1 blocker	D2 agonist
C/C(=N/NS(=O)(=O)c1ccc(C)cc1)c1ccc(NC(=O)C(F)(F)F)cc1	-0.1%	-18	-20	0.7	-11	0.0
COC(F)(C(=O)Nc1ccc2c(c1)C(=O)NC2=O)C(F)(F)F (stereo unspecified)	-0.5%	-1	5	-1.1	1	-1.8

Source: PubChem

Hits appear at their usual frequency; 1% or so of the library scored in one or more.
